Source: PubChem
KCNQ2 inh: KCNQ2 potassium channel inhibitors, primary screen, cell-based, CHO-K1, FluxOR thallium flux, B-score (AID 2156). 20 min; active compounds read low; only compounds with negative scores are shown here; some inactives read as strong as hits. 310,000 tested, 1.1% active. Potassium voltage-gated channel subfamily KQT member 2 (Rattus norvegicus), O88943. B-score at 10 µM;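 active = fluorescence ratio B-score at most minus 3 library SDs, with starting brightness B-score within 2 library SDs, cut at about -5.5 in these data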
Target sequence (O88943 whole entry, looked up): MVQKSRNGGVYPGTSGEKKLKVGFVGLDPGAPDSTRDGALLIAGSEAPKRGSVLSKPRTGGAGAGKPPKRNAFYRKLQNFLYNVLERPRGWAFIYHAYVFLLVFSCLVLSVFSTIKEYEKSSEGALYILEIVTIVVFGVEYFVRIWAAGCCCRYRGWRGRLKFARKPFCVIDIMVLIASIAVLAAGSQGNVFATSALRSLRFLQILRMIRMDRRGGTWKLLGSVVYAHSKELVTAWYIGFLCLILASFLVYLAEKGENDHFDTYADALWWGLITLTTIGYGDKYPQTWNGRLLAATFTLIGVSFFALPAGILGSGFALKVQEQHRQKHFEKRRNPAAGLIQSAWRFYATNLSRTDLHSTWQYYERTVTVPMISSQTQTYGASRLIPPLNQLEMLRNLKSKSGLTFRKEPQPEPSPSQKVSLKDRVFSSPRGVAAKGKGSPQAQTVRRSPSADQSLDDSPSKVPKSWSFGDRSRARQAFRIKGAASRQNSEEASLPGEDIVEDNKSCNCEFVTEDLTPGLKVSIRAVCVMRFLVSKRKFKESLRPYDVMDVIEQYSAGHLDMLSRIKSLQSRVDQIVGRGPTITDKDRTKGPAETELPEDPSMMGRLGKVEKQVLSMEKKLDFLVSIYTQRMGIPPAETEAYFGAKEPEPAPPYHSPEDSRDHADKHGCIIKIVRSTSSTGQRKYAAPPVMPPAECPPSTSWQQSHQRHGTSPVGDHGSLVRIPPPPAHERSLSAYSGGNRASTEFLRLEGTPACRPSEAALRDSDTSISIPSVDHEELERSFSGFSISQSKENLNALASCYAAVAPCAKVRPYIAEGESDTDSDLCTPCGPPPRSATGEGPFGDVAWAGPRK
KCNQ2 inh baseline: second read-out of KCNQ2 inh, no call of its own (marks repeat the call); B-score; measured here: initial fluorescence intensity artifact check;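 brightness before thallium and not channel activity; 0 = typical well and far values either way flag optical interference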
Numbers without * were called inactive; i = inactive.

SMILES | KCNQ2 inh | KCNQ2 inh baseline
O=C(O)CC/C(=N\NC(=O)c1ccc(F)cc1)c1ccc(Br)cc1 | i | -0.22
Cc1ccc(CC2CC(=O)N(CC(=O)O)C2=O)cc1 (configuration not stated) | i | 0.47
COc1ccc(OC)c(N/C=C/C(=O)c2ccc(OC)c(OC)c2)c1 | i | 2
Nc1c(S(=O)(=O)c2ccccc2)nnn1-c1ccccc1 | i | 0.27
Cc1ccc(S(=O)(=O)N2CCC(=O)N(C(COC(=O)Nc3ccccc3)Cc3ccccc3)CC2)cc1 (configuration not stated) | i | 0.1
Nn1c(SCC(=O)NCc2ccc3c(c2)OCO3)nnc1C1CC1 | i | -0.35
Cc1cc(N2CCOCC2)nc(SCc2c(Cl)cccc2Cl)n1 | i | 0.66
CCOC(=O)c1cccc(NC(=O)CCc2ccccc2)c1 | i | -2.1
CCOC(=O)c1c(C)[nH]c(C)c1C=O | i | 0.61
Clc1ccc(CSc2nncn2-c2ccc3c(c2)OCCO3)cc1 | -7.7* | -0.02*
Oc1ccccc1-c1nnc(-c2ccc(C(F)(F)F)cc2)o1 | i | -1.7
CC1(OC(=O)C2CCCC2)C(=O)C=C2C=C(c3ccsc3)N(C(CO)CO)C=C2C1=O (configuration not stated) | i | -0.08
Cc1cc(N2CCOCC2)nc(-c2ccc([N+](=O)[O-])cc2)n1 | i | -0.99
COc1ncnc2sc(-c3ccccc3)cc12 | i | -0.07
N#Cc1ccccc1NC(=O)CSc1nnc(-c2ccncc2)o1 | i | -0.51
COc1ccc(C(=O)N=C2SC3CS(=O)(=O)CC3N2c2ccc(N(C)C)cc2)cc1OC (configuration not stated) | i | -2.4
Cc1ccccc1Oc1nc2ccccn2c(=O)c1/C=C(\C#N)C(=O)Nc1c(C)n(C)n(-c2ccccc2)c1=O | i | -0.03
O=C(NCc1cc([N+](=O)[O-])ccc1O)c1cccnc1Sc1ccc(Cl)cc1 | i | -0.09
Oc1ccc(F)cc1-c1cc(-c2ccc3c(c2)OCCO3)n[nH]1 | i | 1.9
Clc1ccc(-c2csc(=Nc3cccnc3)n2CCCn2ccnc2)cc1Cl | i | 1.9
Clc1ccc(Cn2c(-c3cccnc3Cl)nc3ccccc32)cc1 | i | 0.79
CCCCN(Cc1ccco1)S(=O)(=O)c1c[nH]c(C(=O)OC)c1 | i | 0.64
CN(C/C=C/c1ccccc1)C1CCCCC1 | i | 0.68
CCCCOc1ccc(C(=O)N/C(=C\c2ccc(OC)cc2)C(=O)OCc2ccco2)cc1 | i | 0.01
CCN(Cc1ccncc1)C(=O)c1cc(COc2c(C)cccc2C)on1 | i | -0.18

Reprinted at random: 5 compounds from above
SMILES | KCNQ2 inh | KCNQ2 inh baseline
COc1ncnc2sc(-c3ccccc3)cc12 | i | -0.07
Cc1ccccc1Oc1nc2ccccn2c(=O)c1/C=C(\C#N)C(=O)Nc1c(C)n(C)n(-c2ccccc2)c1=O | i | -0.03
COc1ccc(OC)c(N/C=C/C(=O)c2ccc(OC)c(OC)c2)c1 | i | 2
Cc1cc(N2CCOCC2)nc(-c2ccc([N+](=O)[O-])cc2)n1 | i | -0.99
CCN(Cc1ccncc1)C(=O)c1cc(COc2c(C)cccc2C)on1 | i | -0.18

Carrying on.
SMILES | KCNQ2 inh | KCNQ2 inh baseline
Cc1ccc2nc(-c3ccncc3)c(NC3CCCCC3)n2c1 | i | 1.1
O=C(c1ccccc1)N1CCN(C(=O)c2nn3c(C(F)(F)F)cc(-c4ccco4)nc3c2Cl)CC1 | i | -1.2
O=C(NCC(c1ccco1)N1CCN(c2ccccc2F)CC1)OCc1ccccc1 (configuration not stated) | i | 0.58
CCOC(=O)N/N=C/c1c(F)cccc1F | i | 0.99
CC(=O)c1cccc(CN2CCCCC2C(=O)Nc2ccc(Oc3ccccc3)nc2)c1 (configuration not stated) | i | 0.27
Cc1c(NC(=O)Nc2c(Cl)cccc2Cl)c(=O)n(-c2ccccc2)n1C | i | -0.13
Cc1cc(NC(=O)NN2CCOCC2)nn1-c1c(Cl)cc(Cl)cc1Cl | i | -1.2
C=CCNc1cc(N2CCCC2)ccc1[N+](=O)[O-] | i | 3
COc1cc(/C=C/C(=O)OCC(=O)c2c(N)n(C)c(=O)n(C)c2=O)ccc1OC(F)F | i | 1.8
CCOc1ccccc1C(=O)Nc1cc(C(=O)NCC(C)C)ccc1Cl | i | 0.7
CCCCN(Cc1ccco1)C(=O)C1CCCN(c2ncnc3c2nc2n3CCCCC2)C1 (configuration not stated) | i | -0.04
O=C1CCc2cc(S(=O)(=O)NCCc3ccc(Cl)cc3)cc3c2N1CC3 | i | 2
C=CCc1ccccc1OCC(O)CN1CCN(c2ccccc2F)CC1 (configuration not stated) | i | -0.02
COC(=O)C1CCN(C2=C(NS(=O)(=O)c3ccc(Cl)cc3)C(=O)c3ccccc3C2=O)CC1 | i | -1.9
Cc1cc(=O)[nH]c(-n2nc(C)cc2C)n1 | i | -1.8
CCNc1ccc(C2(O)C(=O)c3ccccc3C2=O)cc1 | i | 0.51
COc1ccc(N(C(C)C(=O)N/N=C(\C)C(C)(C)C)S(C)(=O)=O)cc1 (configuration not stated) | i | 1.1
O=C(Nc1nnc(-c2ccccc2)o1)C1CCCN1S(=O)(=O)c1cccs1 (configuration not stated) | i | -0.14
COCCN(C(=O)COC(=O)CC1CCCCC1)c1c(N)n(Cc2ccccc2)c(=O)[nH]c1=O | i | 1
O=C(CSc1nc2ccccc2n1CC(=O)N1CCCC1)Nc1ccc2c(c1)OCO2 | i | -1.7
Cc1cnc(C(=O)OCC(=O)c2cccc3ccccc23)cn1 | i | 0.26
CS(=O)(=O)NCCNc1ccc(C(F)(F)F)cc1[N+](=O)[O-] | i | -0.32
Cc1ccc(C(=O)NNC(=O)c2ccc3ccccc3c2O)cc1 | i | -2
Cc1ccc(C(C)C)c(OCC(=O)N2CCOCC2)c1 | i | 1.8
COc1ccc(C2CC(c3cccs3)=NN2C(=S)Nc2ccccc2)cc1OC (configuration not stated) | i | 1.3
SMILES | KCNQ2 inh | KCNQ2 inh baseline
COc1ccc(C(=O)Nc2nnc(Cc3ccccc3)s2)c(OC)c1 | i | -0.09
Cc1ccc(CN(C(=O)c2ccco2)C(C(=O)NC2CCCC2)c2ccc(N3CCOCC3)cc2)cc1 (configuration not stated) | i | -2
CCOC(=O)c1ccc(NC(=O)C2(c3ccccc3)CCCC2)cc1 | i | 0.07
Cc1cc(NC(=O)c2cccs2)ncc1NC(=O)c1cccc(F)c1 | i | -0.01
CCCCN(C)CCCNC(=O)c1cc(Nc2ccc(OC)c(OC)c2)nc2ccccc12 | i | -0.84
Cc1nn(-c2ccccc2)c2nc(N)c(C#N)c(-c3ccc(O)c(O)c3)c12 | i | -0.09
COc1ccc(C2CC(=O)C(C=NCCN3CCN(C(=S)Nc4ccccc4)CC3)=C(O)C2)cc1 (configuration not stated) | i | -1.8
CC(C)COc1ccc(C(=O)OCC(=O)NCCC2=CCCCC2)cc1 | i | 0.51
CC(C)(C)S(=O)(=O)c1cnc2c(S(=O)(=O)c3ccccc3)cnn2c1N | i | 0.13
COc1ccc(S(=O)(=O)N2CCOC2CNC(=O)C(=O)NCc2cccnc2)cc1C (configuration not stated) | i | -3.9
Cc1cc(C(=O)NCCCn2ccnc2)sc1-c1ccccc1 | i | 6.2
CC(C)[C@H](NC(=O)c1ccccc1)C(=O)OCC(=O)N1CCCc2ccccc21 | i | 1.6
COc1ccc(OC)c(NC(=O)c2ccccc2SC)c1 | i | -0.64
COc1cccc(CN(Cc2cccnc2)S(=O)(=O)c2ccc(-n3cnnn3)c(C)c2)c1OC | i | 0.15
COC(=O)c1ccccc1NC(=O)c1ccc(COc2ccc(C)c(C)c2)o1 | -6.6* | -0.81*
O=C(O)c1ccc(NCc2cccnc2)c([N+](=O)[O-])c1 | i | 0.63
CCc1cc2c3c(c(=O)oc2cc1OCC(=O)OC)CCCC3 | i | -0.15
CC1(C)CC(=O)C=C(NCc2cccc(C(F)(F)F)c2)C1 | i | -0.22
Cc1nnnn1CC(=O)Nc1cccc([N+](=O)[O-])c1 | i | 0.08
Cc1ccc(CNC(=O)N[C@@H](Cc2ccccc2)C(=O)O)cc1 | i | 2.2
COc1cc(OC)c(C(=O)Nc2cc(Cl)ccc2-n2cncn2)cc1OC | i | -0.36
O=C(COC(=O)c1ccc(Br)o1)Nc1nc2c(F)c(F)c(F)cc2s1 | i | -0.34
Fc1cccc(-c2oncc2-c2nnnn2-c2ccc(Cl)cc2)c1 | i | 0.67
Cn1c(CC(=O)Nc2ccc(F)cc2)nnc1SCC(=O)Nc1nncs1 | i | 0.01
O=C(N/N=C/C1C(c2ccccc2)C1(Cl)Cl)c1cccc(Cl)c1 (configuration not stated) | i | -0.08

Reprinted from the part before: 3 compounds; new compounds follow.
SMILES | KCNQ2 inh | KCNQ2 inh baseline
Fc1cccc(-c2oncc2-c2nnnn2-c2ccc(Cl)cc2)c1 | i | 0.67
Cn1c(CC(=O)Nc2ccc(F)cc2)nnc1SCC(=O)Nc1nncs1 | i | 0.01
O=C(N/N=C/C1C(c2ccccc2)C1(Cl)Cl)c1cccc(Cl)c1 (configuration not stated) | i | -0.08
COc1cccc(Nc2nc3ccccc3n3nnnc23)c1 | i | 0.01
C/C(=N\Nc1cc(Cl)nc(C)n1)c1ccccc1 | i | -0.31
CCC(=O)Nc1c2c(nn1-c1ccc(OC)cc1)CSC2 | i | 1.2
CC(=O)N1CCOCCOCCN(C(C)=O)CCOCCOCC1 | i | -2.3
Cn1c(=O)[nH]c(=O)c2cc(C(=O)c3cc(F)ccc3O)cnc21 | i | 1.8
CCOC(=O)C(Oc1ccc2c(-c3ccccc3)cc(=O)oc2c1)c1ccccc1 (configuration not stated) | i | -1
O=C(CCCNC(=O)/C(=C/c1ccccc1F)NC(=O)c1ccccc1)OCc1ccccc1 | i | 1.8
CC1CCCCC1NC(=O)c1c(O)nc2ccccn2c1=O (configuration not stated) | i | 0.17
O=c1cnn(Cc2ccc(Cl)c(Cl)c2)c2ccccc12 | i | -0.13
CN1CCN(c2ccccc2NC(=O)c2cc3ccccc3o2)CC1 | i | 0.02
CCCN1C(=O)c2ccc(C(=O)Nc3ccccc3C(=O)O)cc2C1=O | i | 0.56
CC1CC(C)CN(S(=O)(=O)N2CCCC(C(=O)NC3CCCCC3)C2)C1 (configuration not stated) | i | -0.09
Cn1cc(C(N)=O)c2ccccc21 | i | -0.69
CCN(C(=O)C(C)OC(=O)C1C(C(=O)OC)=C(C)NC(C)=C1C(=O)OC)c1ccccc1 (configuration not stated) | i | -0.13
CCC1(C)OC(=O)N(CCCn2ccnc2C)C1(C)O (configuration not stated) | i | -0.53
CCCCn1nc2cc(C(=O)NCCc3ccc(C)cc3)ccc2c1OCC | i | 0.02
COCCNC(=O)C1CCC(=O)N1S(=O)(=O)c1ccc(C)cc1 (configuration not stated) | i | 0.41
CN(CCc1cn[nH]c1)Cc1nc(C(c2ccccc2)c2ccccc2)no1 | i | 0.01
Cc1ccc2cc(C(c3nnnn3C3CCCC3)N(Cc3ccccc3)Cc3ccco3)c(=O)[nH]c2c1 (configuration not stated) | i | -2
O=C(c1cn(-c2ccccc2)nc1-c1ccc(Br)cc1)N1CCOCC1 | i | -0.13
O=C(O)CCn1c(SCCOc2ccccc2F)nc2ccccc21 | i | 0.48
COc1ccc(NC(=S)N2CCN(C/C=C/c3ccccc3)CC2)cc1OC | i | -1.1
NS(=O)(=O)c1ccc(CCNC(=O)c2ccc([N+](=O)[O-])s2)cc1 | i | 0.81
COc1ccc(C(=O)O)cc1S(=O)(=O)N(C)C | i | -0.29
CN(Cc1ccccc1F)C(=O)c1ccccc1Sc1ccccc1C#N | i | 2.2

Arranged by value in KCNQ2 inh baseline (smallest number first): some entries from above
SMILES | KCNQ2 inh | KCNQ2 inh baseline
CCC1(C)OC(=O)N(CCCn2ccnc2C)C1(C)O (configuration not stated) | i | -0.53
CN1CCN(c2ccccc2NC(=O)c2cc3ccccc3o2)CC1 | i | 0.02
NS(=O)(=O)c1ccc(CCNC(=O)c2ccc([N+](=O)[O-])s2)cc1 | i | 0.81
CN(Cc1ccccc1F)C(=O)c1ccccc1Sc1ccccc1C#N | i | 2.2

Carrying on:
SMILES | KCNQ2 inh | KCNQ2 inh baseline
CCN(CC)C(=S)NC(=O)Cc1ccccc1 | i | 0.56
COc1cc(/C=C2/SC(=S)N(CCC(=O)Nc3ccccc3)C2=O)cc(OC)c1OC | i | 0.12
COc1ccc(CCNc2nc(N3CCCCC3)nc(N3CCCCC3)n2)cc1OC | i | 0.01
Cc1ccc(S(=O)(=O)n2nc(-c3ccco3)nc2N)cc1 | i | -0.2
COc1ccc(C(=O)/C=C/C(=O)N(Cc2ccccc2)C(C(=O)NC2CCCCC2)c2ccncc2)c(O)c1 (configuration not stated) | i | 0.88
CCOC(=O)C1(CCCc2ccccc2)CCN(C(=O)C(C)n2cncn2)CC1 (configuration not stated) | i | -0.31
CCN(CC(=O)N1CCOCC1)S(=O)(=O)c1ccc(Cl)cc1 | i | 0.9
CC(CNC(=O)CCc1ccccc1)NC(=O)CCc1ccccc1 (configuration not stated) | i | -0.7
O=[N+]([O-])c1ccc(NNC(=S)Nc2ccccc2)cc1 | i | -0.08
Cc1cc(C)n(CC(O)CN2C(=O)NC(C)(C)C2=O)n1 (configuration not stated) | i | -0.89
Cc1ccc(NC(=O)c2cc(-c3ccc(C)o3)nc3ccccc23)nc1 | i | 0.51
CCOC(=O)c1nnn(-c2nonc2-n2cccc2)c1CN1CCCCC1 | i | 0.07
Clc1cccc(CNCCNCc2cccc(Cl)c2)c1 | i | -0.08
COc1ccc(C(CC(=O)NCCN2CCOCC2)NS(=O)(=O)c2ccc(C)cc2)cc1 (configuration not stated) | i | 0.24
CC1=C(C(=O)OC(C)C)C(c2ccco2)NC(=O)N1 (configuration not stated) | i | 0.12

Not all compounds are listed (hit frequency here may not be typical).
